# Screens from PubChem BioAssay.
# B2AR ag = beta2AR agonists driving receptor internalization, primary screen, cell-based, FAP fluorogen, flow cytometry; Beta-2 adrenergic receptor (Homo sapiens), P07550; Am2.2-beta2AR cells; reference of the scale not given here; response, % (test concentration not listed); 340,000 tested, 0.43% active; AID 504454, 2011;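 active means response above a set limit, near 3 SD of response in nonfluorescent compounds, cut at about 42% in these data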;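 further: stock transfer was 100 nL into about 11 µL; a reference agonist was the positive control; negative values mostly stem from fluorescent compounds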
# Target sequence (P07550 whole entry, looked up): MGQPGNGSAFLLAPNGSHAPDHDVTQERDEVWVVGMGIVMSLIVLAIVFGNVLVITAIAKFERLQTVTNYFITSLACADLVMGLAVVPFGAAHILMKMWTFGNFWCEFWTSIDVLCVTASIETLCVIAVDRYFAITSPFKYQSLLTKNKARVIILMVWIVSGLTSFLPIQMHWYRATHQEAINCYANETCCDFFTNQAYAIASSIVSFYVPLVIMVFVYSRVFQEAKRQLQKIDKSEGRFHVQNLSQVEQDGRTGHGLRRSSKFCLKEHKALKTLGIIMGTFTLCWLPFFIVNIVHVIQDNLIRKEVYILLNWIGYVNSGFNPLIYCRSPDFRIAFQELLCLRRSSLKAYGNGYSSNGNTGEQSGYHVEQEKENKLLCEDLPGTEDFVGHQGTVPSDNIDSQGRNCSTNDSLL
# A1 inh = caspase 3/7 activation in MEF A1-2A-BIM cells, primary screen, A1 inhibitor project, cell-based, luminescence, HTS; 330,000 tested, 0.066% active; caspase activation, % (concentration not given with the values); Caspase-Glo 3/7 luminescence, 3 h; percent of clofoctol response, vehicle zero; AID 2462, 2010;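 active means over half of replicate activation scores above 10%, or exactly half above 10 with the replicate mean above 10; inconclusive means replicate mean below 10 yet half the replicates above 10; inactive means over half of replicates below 10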;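 further: wells of about 30 µL received 50 nL stock; many hits fall short of the cut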
# HNF4A DNA FP = change in binding of human HNF4A to DNA, primary screen, biochemical, fluorescence polarization, FITC-DNA. 360,000 tested, 0.3% active. 1 h. activity change, % at 10 µM. AID 1224865, 2016. Hepatocyte nuclear factor 4-alpha (Homo sapiens), P41235; in the data active means activity change above about 30%, passing the limit was not always enough;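 further: controls were the assay level and a saturating level of protein; the project sought stronger binding though the title names inhibitors; some compounds called inactive have numbers as strong as hits; positive values seem to mean higher polarization but the record does not say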
# Vif TR-FRET = inhibitors of Vif binding to APOBEC3G peptide, primary screen, biochemical, TR-FRET, GST-Vif 1-94, biotin-A3G peptide, dose response retest (AID 1117319); Virion infectivity factor (Human immunodeficiency virus type 1 group M subtype B (isolate …; TR-FRET GST-Vif / biotin-A3G peptide binding; higher % means a stronger effect; test concentration not given here; strong numbers were not always called active; inhibition, %, or IC50 in µM where a hit was titrated; 260,000 tested, 0.57% active;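 active means above the screen mean plus three standard deviations and confirmed in dose response; inconclusive means results disagree or hit not tested in dose response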;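 further: Vif residues 1-94 fused to GST binding biotinylated APOBEC3G peptide 110-148; 0% = full assay without inhibitor and 100% = GST in place of GST-Vif; retest series ran down from 100 µM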
# UCH37 inh = inhibitors of human UCH37 deubiquitinase, primary screen, biochemical, Ub-AMC cleavage, fluorescence; Ubiquitin carboxyl-terminal hydrolase isozyme L5 (Homo sapiens), Q9Y5K5; purified proteasome/UCH37; 330,000 tested, 0.33% active; inhibition, % (concentration not given with the values);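 active means mean of two replicates above 20%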;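 further: 0% = compound-free wells with enzyme and 100% = wells lacking proteasome; stock transfer was 100 nL into about 20 µL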
#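 Material: human UCH37 enzyme supplied as purified proteasome complex. Measure: % inhibition of Ub-AMC cleavage fluorescence. Medium: pH 7.4 Tris-HCl (50 mM) with ovalbumin, ATP-MgCl2, DTT. Times: 30 min preincubation with enzyme, 25 min cleavage at room temperature. Detection: AMC fluorescence intensity at 355/460 nm.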
# E coli growth = E. coli growth inhibition, primary screen, OD600; Escherichia coli growth, 23 h; active compounds read low; OD600 absorbance (test concentration not listed); 330,000 tested, 0.21% active; AID 1053175, 2014;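 active means OD600 absorbance below the run mean of sample wells minus 3.6 SD, in any replicate, cut at about 0.56 in these data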;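 further: stock transfer was 300 nL into about 60 µL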
# LANA-H2A inh = blockers of LANA interaction with H2A/H2B – biochemical, FP readout, HTS, primary screen | cell-free LANA-H2A/H2B peptide, fluorescence polarization | inhibition, % (concentration not given with the values) | 320,000 tested, 0.6% active | AID 2629, 2010; in the data active means inhibition mostly above about 10%, no sharp cut-off; inactive means mostly below about 6.7%;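 further: stock transfer was 7.5 nL into about 10 µL; 0% = median of vehicle wells and 100% = median of positive control wells; one replicate is shown; the record names a cut of 25% in any replicate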
# * hit, by the source's call; ? = inconclusive; / = not tested or not shown. These rows are one share of the data; count on the stated rates, not on these rows.
# Each structure is followed by: B2AR ag | A1 inh | HNF4A DNA FP | Vif TR-FRET | UCH37 inh | E coli growth | LANA-H2A inh
Oc1ccc(/C=N/NP(=S)(c2ccccc2)c2ccccc2)c(O)c1O
    4 | 0.0 | -5.8 | 18µM* | / | / | 3.7
CCOP(=S)(OCC)Oc1cc(C)oc(=O)c1
    -1 | -0.6 | 1.9 | ? | 5.7 | 0.64 | 1.7
C[C@]12CCC3C(CC[C@H]4C[C@@H](O)CC[C@]34C)C1C[C@@H](N)[C@@H]2O (some centres undefined)
    4 | -0.1 | 1.9 | -4% | -2.3 | 0.63 | -0.4
CCCCCCCSc1cc(OC)c(CCN(C)C)cc1OC
    37 | 0.2 | -1.8 | -1% | 5.2 | 0.63 | 0.4
CCCCCn1c(=O)c(C(=O)Nc2nc3ccccc3[nH]2)c(O)c2ccccc21
    -6 | 0.5 | -4.6 | -5% | -28 | 0.69 | 8.9
COC(=O)C1=C(c2ccc(F)cc2OCc2ccccc2)C[C@@H]2CC[C@H]1N2C(=O)NCc1ccc(C(F)(F)F)cc1
    12 | -1.6 | 3.6 | / | 1.7 | / | -2.1

# An excerpt from above with just A1 inh, LANA-H2A inh and UCH37 inh:
SMILES	A1 inh	LANA-H2A inh	UCH37 inh
Oc1ccc(/C=N/NP(=S)(c2ccccc2)c2ccccc2)c(O)c1O	0.0	3.7	/
CCOP(=S)(OCC)Oc1cc(C)oc(=O)c1	-0.6	1.7	5.7

# Molecules above with a carbonyl joined to an NH by a bond outside any ring (2):
# Each structure is followed by: B2AR ag | A1 inh | HNF4A DNA FP | Vif TR-FRET | UCH37 inh | E coli growth | LANA-H2A inh
CCCCCn1c(=O)c(C(=O)Nc2nc3ccccc3[nH]2)c(O)c2ccccc21
    -6 | 0.5 | -4.6 | -5% | -28 | 0.69 | 8.9
COC(=O)C1=C(c2ccc(F)cc2OCc2ccccc2)C[C@@H]2CC[C@H]1N2C(=O)NCc1ccc(C(F)(F)F)cc1
    12 | -1.6 | 3.6 | / | 1.7 | / | -2.1

# Reprinted at random: 3 records from the list
# Each structure is followed by: B2AR ag | A1 inh | HNF4A DNA FP | Vif TR-FRET | UCH37 inh | E coli growth | LANA-H2A inh
C[C@]12CCC3C(CC[C@H]4C[C@@H](O)CC[C@]34C)C1C[C@@H](N)[C@@H]2O (some centres undefined)
    4 | -0.1 | 1.9 | -4% | -2.3 | 0.63 | -0.4
CCOP(=S)(OCC)Oc1cc(C)oc(=O)c1
    -1 | -0.6 | 1.9 | ? | 5.7 | 0.64 | 1.7
COC(=O)C1=C(c2ccc(F)cc2OCc2ccccc2)C[C@@H]2CC[C@H]1N2C(=O)NCc1ccc(C(F)(F)F)cc1
    12 | -1.6 | 3.6 | / | 1.7 | / | -2.1
